Screens: PubChem, National Center for Advancing Translational Sciences (NCATS)
VDR inhibitor – inhibitors of human vitamin D receptor; AID 504847; VDR-SRC2-3 peptide fluorescence polarization, 2 h; Potency, µM, without a hit: max response, negative = inhibition, usual class: inhibitors; 400,000 compounds, 0.93% hits; active = well fitted inhibition curve with a large enough effect; inconclusive = small, poorly fitted or top-dose-only effect, or another doubt; inactive = no such curve, though single readings can be large or run the other way; note: series mostly up to about 120 µM
Target sequence (P11473 whole entry, looked up): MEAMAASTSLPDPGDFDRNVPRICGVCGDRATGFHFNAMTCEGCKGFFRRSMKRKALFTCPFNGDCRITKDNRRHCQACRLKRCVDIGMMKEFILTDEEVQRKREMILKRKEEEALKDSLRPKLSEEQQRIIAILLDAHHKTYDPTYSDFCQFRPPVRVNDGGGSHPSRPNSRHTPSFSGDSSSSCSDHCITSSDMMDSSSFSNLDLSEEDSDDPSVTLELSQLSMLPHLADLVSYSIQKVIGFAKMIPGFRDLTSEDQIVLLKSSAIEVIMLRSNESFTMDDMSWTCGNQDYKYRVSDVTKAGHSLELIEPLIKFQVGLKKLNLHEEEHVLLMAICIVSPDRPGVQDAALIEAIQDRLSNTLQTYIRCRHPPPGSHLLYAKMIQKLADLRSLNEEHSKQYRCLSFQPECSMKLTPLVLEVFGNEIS
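Compounds are added to VDR with labelled SRC2-3 coactivator peptide and held 2 h at room temperature. Inhibition of the VDR–peptide interaction is then read as a change in fluorescence polarization.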
Numbers without * were called inactive; ? = inconclusive; & = joins results of further samples; [ ] = another dose, or the depositor's remark. % is set by controls: 0 for no effect and ±100 for the full control effect; potency is the fitted concentration of half-maximal effect.

compound | VDR inhibitor
CN(C)C1=NC(N(C)C)=NP(N(C)C)(N(C)C)=N1 | 20%
COC(=O)C1=C(c2cccc(OC)c2OC)C[C@@H]2CC[C@H]1N2C(=O)NCc1cccc2ccccc12 | -11%
Cc1cc(C=C2C(=O)N(C)C(=S)N(C)C2=O)c(C)n1-c1ccncc1 | ?
Cc1c(P(=S)(c2ccccc2)c2ccccc2)[n+]2ccccc2n1C | -10%
CCC(=NCCCN(CC)CC)c1c(O)n(-c2ccccc2)c(=O)[nH]c1=O | 0%
CC(C)(C)c1nc(N2CCN(C(=O)c3ccco3)CC2)c2nnn(Cc3ccccc3Cl)c2n1 | 10%
CN1CCCC(=C(c2cccs2)c2cccs2)C1 | 4%
CCOP(=O)(OCC)C(O)c1ccc2c(c1)OCO2 (stereo not given) | -1%
O=C(O)CCCC[C@@H]1SC[C@@H]2NC(=O)N[C@@H]21 | ?
Cc1c(O)c(O)cc2c1CC=C1[C@]3(C)CC[C@]4(C)CC[C@@](C)(C(=O)O)CC4[C@]3(C)CC[C@]12C (stereo not given in full) | ?
CCOC(=O)c1ccc(N=Cc2c(O)n(-c3ccc(OC)cc3)c(=S)[nH]c2=O)cc1 | 30%[activator]
CN1CCC(N2CC3CC(C2)c2cccc(=O)n2C3)CC1 (stereo not given) | 8%
CCn1c(O)c(C=Nc2ccc(S(N)(=O)=O)cc2)c(=O)n(CC)c1=S | -2%
CC[C@@H]1[C@@H]2C[C@H]3[C@H]4N(C)c5ccccc5[C@@]45C[C@@H]([C@@H]2[C@@H]5O)N3[C@H]1O | 2%
CCn1cc(C(=O)N2CCC3(CC2)OCCO3)c(=O)c2cc(S(=O)(=O)N3CCCC3)ccc21 | -1%
Cn1cc(C(=O)OCC(=O)NC2CCCCC2)c2ccccc21 | 5%
CN(C)c1ccc(/C=C/C=C2/C(=O)NC(=O)N(c3ccccc3)C2=O)cc1 | 36%[activator]
O=C(O)c1ccc(Cl)nc1 | -2%
Cc1cccc(-n2c(O)c(C=NC34CN5CN(CN(C5)C3)C4)c(=O)[nH]c2=O)c1 | -4%
COC(=O)c1ccc(-n2c(C)nc3ccccc3c2=O)cc1 | 7%
CC(NCc1ccc(Cl)cc1)C(O)c1ccccc1 (stereo not given) | -18%
CCCC(C)n1[nH]c(=O)c2c1NC(=O)CSC2c1ccc(OC)cc1 (stereo not given) | 5%
NC(=O)CSc1nc2cc(S(=O)(=O)N3CCOCC3)ccc2o1 | ?
Clc1ccc(C2N3CCCN23)c(Cl)c1 (stereo not given) | -1%
CCOC(=O)[C@]12Cc3cc4c(cc3[C@H]1N(Cc1ccccc1)C(=O)c1ccccc12)OCO4 | -22%
O=C(c1cccc2ccccc12)C1CCCN(C2CCC2)C1 (stereo not given) | 12%
Cc1ccc(N(C)C(=O)Oc2ccc(C(=O)c3ccc(Cl)cc3)cc2)cc1 | -29%
O=C(Nc1ccccc1F)OC1CN2CCC1CC2 (stereo not given) | -1%
CN1C(=O)C(Cc2cccs2)C(=O)N(C)C1=O | -2%
COc1cc(/C=N/NP(=S)(c2ccccc2)c2ccccc2)ccc1O | -7%

The last five records of the part above lead into the next.
compound | VDR inhibitor
O=C(c1cccc2ccccc12)C1CCCN(C2CCC2)C1 (stereo not given) | 12%
Cc1ccc(N(C)C(=O)Oc2ccc(C(=O)c3ccc(Cl)cc3)cc2)cc1 | -29%
O=C(Nc1ccccc1F)OC1CN2CCC1CC2 (stereo not given) | -1%
CN1C(=O)C(Cc2cccs2)C(=O)N(C)C1=O | -2%
COc1cc(/C=N/NP(=S)(c2ccccc2)c2ccccc2)ccc1O | -7%
N#Cc1cc2c(nc1SCC(=O)Nc1cccc(F)c1)C1CCN2CC1 | 6%
Cc1ccc(Cl)cc1NC(=O)N(Cc1ccc2c(c1)OCO2)C1CCN(Cc2ccccc2)CC1 | -14%
C[C@@H]1O[C@@H](O[C@H]2C[C@@H](O)[C@]3(CO)[C@H]4[C@H](O)C[C@]5(C)[C@@H](C6COC(=O)C6)CC[C@]5(O)[C@@H]4CC[C@]3(O)C2)[C@H](O)[C@H](O)[C@H]1O (stereo not given in full) | 2%
CCc1cc2c(s1)N(CC(=O)OC)C(=O)CN=C2c1ccccc1OC | -8%
COC(=O)c1ccc(COc2cc(C)cc3oc(=O)c4c(c23)CCCC4)o1 | 1%
CN(C)C(CNC(=O)Cc1ccc(Br)cc1)c1ccccc1 (stereo not given) | -7%
CN1C(=O)/C(=C\N2CCc3ccccc32)C(=O)NC1=S | -1%
c1cc[n+]2c(c1)-c1cccc[n+]1CC2 | 0%
CC1CCC(NC(=O)CNC(=S)N2CC3CC(C2)c2cccc(=O)n2C3)CC1 (stereo not given) | -5%
C[C@H]1[C@@H](O)[C@@H](C)/C=C\C=CCC\C=C/C=C\C=C/C=C[C@@H](O[C@H]2O[C@@H](C)[C@@H](O)[C@@H](N)[C@@H]2O)C[C@@H]2O[C@@](O)(C[C@@H](O)[C@H]2C(=O)O)C[C@@H](O)[C@@H](O)CC[C@@H](O)C[C@@H](O)C[C@@H](O)CC(=O)O[C@H]1C | -1%
Cn1nc(-c2ccccc2)nc2c(=O)n(C)c(=O)nc1-2 | -24%
O=C1NC(=S)NC(=O)C1Cc1ccccc1O | -1%
COc1ccccc1CN1CC[C@@]2(CCCN(C(=O)Oc3ccccc3)C2)C1 | 0%
O=C1CC(c2ccccc2)CC(O)=C1C=NCCN1CCN(C(=O)Cc2ccccc2)CC1 (stereo not given) | -7%
CC1CCCCC1NC(=O)CNC(=S)N1CC2CC(C1)c1cccc(=O)n1C2 (stereo not given) | -4%
O=c1cccc2n1CC1CC2CN(c2ncnc3c2cnn3-c2ccc(Cl)cc2)C1 (stereo not given) | -10%
CC1CCCN(c2ccc(C(=O)N3CCC4(CC3)OCCO4)cc2[N+](=O)[O-])C1 (stereo not given) | -13%
Cc1ccccc1OCC(=O)N1CCN(CCc2ccccn2)CC1 | -4%
CN1CCN(c2cccc3c2C(=O)c2ccccc2C3=O)CC1 | 3%
Clc1cccc(C2NCc3ccccc3-n3cccc32)c1 (stereo not given) | -9%
Cc1cccc(C(O)(C(=O)NNC(=O)CN2CCN(C)CC2)c2cccc(C)c2)c1 | 6%
COc1cc(/C=C/c2nc3ccccc3c(=O)n2-c2ccc(Br)c(C)c2)ccc1O | -1%
Cc1cc(NC(=O)c2cccn(Cc3ccccc3)c2=O)no1 | 3%
CCN(CC)C(=O)c1c(C)[nH]c(=S)c(C#N)c1-c1ccco1 | ?
CC(C)Oc1ccc(Cc2c(O)[nH]c(=O)[nH]c2=O)cc1 | ?
Cc1c(NC(NC(=O)CF)C(Cl)(Cl)Cl)c(=O)n(-c2ccccc2)n1C (stereo not given) | 11%
COC(=O)C1=COC(C)C2CN3CCC4(C(=O)Nc5ccccc54)C3CC12 (stereo not given) | 11%
O=C(c1cc(=O)[nH]c2ccc(Br)cc12)N1CCC2(CC1)OCCO2 | 1%
COc1ccc(-n2c(-c3ccco3)nc3ccccc3c2=O)cc1 | 7%
O=C1NC(=O)N(c2ccc(F)cc2)C(=O)/C1=C/c1ccc2c(c1)CCCN2Cc1ccccc1 | ?
CC12CC[C@H]3[C@@H](CCC4(O)C[C@H](O)CCC34/C=N/NC(=O)c3ccccc3F)C1(O)CCC2C1=CC(=O)OC1 (stereo not given in full) | 2%
Cc1c(N)c(C)c([N+](=O)[O-])c(C)c1[N+](=O)[O-] | -7%
Cc1nn(Cc2ccccc2Cl)c(C)c1C(=O)OCC(=O)N1CC(C)OC(C)C1 (stereo not given) | -14%
Cc1c(C=O)c2ccccc2n1Cc1cccc(F)c1 | 20µM*
CN(C)C(=O)Oc1ccc(Cl)c2cccnc12 | 7%
O=C1N(c2cccc(Cl)c2)C(c2cccnc2)N2CCCN12 (stereo not given) | 17%
CN(CC(=O)Nc1ccccc1-c1ccccc1)C1CCCCC1 | 5%
CC1CC2(C)C(=CC1=O)CCC1C3CCC(C)(O)C3(C)CC3OC312 (stereo not given) | -14%
CC(=O)CC1CCCCN1 (stereo not given) | 6%
Nc1ccccc1Cl | -3%
NNC(=O)c1ccc(O)cc1 | 3%&8%
CCC(C)C1NC(=O)C(NC(=O)C(CC(C)C)N(C)C(=O)C2CCCN2C(=O)C(C)O)C(C)OC(=O)C(Cc2ccc(OC)cc2)N(C)C(=O)C2CCCN2C(=O)C(CC(C)C)NC(=O)[C@H](C)C(=O)[C@H](C(C)C)OC(=O)CC1O (stereo not given in full) | -13%
O=C(C1CC(=O)N(C2CCCCCCC2)C1)N1CCC2(CC1)OCCO2 (stereo not given) | -6%
CC(=O)Nc1ccccc1OP1(=O)COc2ccccc2OC1 | 2%
CN1CCN(c2ccc(F)cc2N)CC1 | 7%
Cc1nn(CC(=O)N2CCC3(CC2)OCCO3)c(=O)c2cc3ccccc3n12 | -4%
Clc1cncc(N2CCNCC2)n1 | 1%&-3%
COC(=O)C1=C(C)NC(C)=C(C(=O)NCCCN2CCC(c3ccccc3)(c3ccccc3)CC2)C1c1ccc([N+](=O)[O-])cc1 (stereo not given) | ?
CCN(C(=O)COC(=O)C(O)(c1ccccc1)c1ccccc1)c1c(N)n(Cc2ccccc2)c(=O)[nH]c1=O | -2%
C/C(=N\NC(=O)c1ccncc1)c1c(O)[nH]c(=O)[nH]c1=O | -19%

Continuation:
compound | VDR inhibitor
Cc1cc(Cl)ccc1OCCCC(=O)NCc1cccs1 | 7%
CCOc1ccc2nc(NC(=O)c3cccn(Cc4ccc(Cl)cc4)c3=O)sc2c1 | -6%
O=C(O)c1ccc(-n2c(O)c(/C=C3\C=Nc4ccccc43)c(=O)[nH]c2=O)cc1 | -16%
Cc1cc(NCCN)nc2ccccc12 | -20%
NCCc1c[nH]c2ccccc12 | 13%&-20%
Cc1ccccc1C(=O)NC(Oc1ccccc1)C(Cl)(Cl)Cl (stereo not given) | -4%
COc1ccc(C(=O)C2CCCN(Cc3ccon3)C2)cc1OC (stereo not given) | 19%
CCN1C[C@@]2(COC)CC[C@H](OC)[C@]34[C@@H]1[C@]1(OCO[C@@]15C[C@@H](OC)C1C[C@H]3[C@H]5[C@@H]1OC)[C@H](O)[C@@H]24 | 2%
CN(C)C1(CNC(=O)Cc2ccccc2F)CCCCC1 | 4%
O=C(NP(=O)(N1CC1)N1CC1)c1cc(I)ccc1I | -12%

Three entries from above, field by field:
CCOc1ccc2nc(NC(=O)c3cccn(Cc4ccc(Cl)cc4)c3=O)sc2c1
  VDR inhibitor = -6%

CN(C)C1(CNC(=O)Cc2ccccc2F)CCCCC1
  VDR inhibitor = 4%

O=C(O)c1ccc(-n2c(O)c(/C=C3\C=Nc4ccccc43)c(=O)[nH]c2=O)cc1
  VDR inhibitor = -16%

Next section
compound | VDR inhibitor
CN(C)c1ccc(/C=C2/C(=O)NC(=O)N(CCc3ccc(F)cc3)C2=O)cc1 | ?
CC(C)C12CN3CC(C(C)C)(CN(C1)C3c1ccccn1)C2=O (stereo not given) | 5%
COc1ccc(N2C(=O)/C(=C/C=C/c3ccccc3[N+](=O)[O-])C(=O)NC2=S)cc1 | 22µM*
CN1CCN(c2cn[nH]c(=O)c2Cl)CC1 | 5%
COC(=O)C(O)(c1ccc(N(C)C(=O)OC(C)C)cc1)C(F)(F)F (stereo not given) | 17%
CC1(C)[C@@H](O)C[C@H]2[C@](C)(O)[C@@H]3CC[C@H]4[C@@H](O)[C@@]3(C[C@@H](O)[C@@]21O)C[C@@]4(C)O | -8%&7%
Cn1cccc1/C=C1/C(=O)NC(=O)N(C(C)(C)C)C1=O | -6%
COc1cc(NC(=O)CN2C3CCC2CC(O)(c2cccnc2)C3)cc(OC)c1 (stereo not given) | -6%
Cc1nn(-c2ccncc2)c2c1C(=O)CC(C)(C)C2Br (stereo not given) | ?
Oc1ccc(Br)cc1CN1CCN(c2ccccc2)CC1 | -13%
CC(=O)OC1CCC2(C)C3CCC4(C)C(OC(C)=O)CCC4C3C(C)C2(O)C1 (stereo not given) | 5%
C[C@]12CCC3C(CC[C@@H]4CC(=O)CC[C@]34C)C1CC[C@@H]2O (stereo not given in full) | -13%
COC(=O)C1=C(c2ccc(S(C)(=O)=O)cc2)C[C@@H]2CC[C@H]1N2C(=O)N1CCCCC1 | 4%
COc1cccc(C(=O)C2CCCN(Cc3ccon3)C2)c1 (stereo not given) | 1%
COc1cc(C2c3cc(O)c(OC)cc3CC3C(=O)OCC32)ccc1O (stereo not given) | 12%
c1ccc(CCCCN2CCC(c3ccccc3)CC2)cc1 | 9%&6%
COc1ccc2c(c1)c(CCN1CCOCC1)c(C)n2C(=O)c1cccc(Cl)c1Cl | -16%
CC(=O)OC1CCC2(C)C(CCC3C2CC(=O)C2(C)C3CC(N3CC3)C2C(C)=O)C1 (stereo not given) | -15%
CCCN(CC#CCOc1ccc(OC)cc1)CCC | -4%
Cc1ccsc1C(=O)C1CCCN(Cc2cnc(N)nc2)C1 (stereo not given) | 4%
Cc1c(C(c2ccc(O)cc2)c2c(O)c3ccccc3oc2=O)c(=O)n(-c2ccccc2)n1C (stereo not given) | -18%&-7%
CCOC(=O)N(CC)c1ccc(C(O)(C(=O)OCC)C(F)(F)F)cc1 (stereo not given) | 11%
COc1cccc(-c2nn(Cc3ccccc3)cc2C(=O)O)c1 | 9%
C[C@H]1COC2=C1C(=O)C(=O)c1c2ccc2c1CCCC2(C)C | 11µM*
O=C(Cc1ccccc1)Oc1cccc(-n2cnnn2)c1 | 1%

Only part of the results is shown; rates above refer to the full screens.
